YopH inh = blocks Yersinia enterocolitica YopH tyrosine phosphatase | fluorescence Ex485/Em525 | inhibition, %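 (about 10 µM by stock and volumes)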 | 0.16% of 140,000 active;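 active means inhibition of 50% or more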;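 further: controls were vehicle for no effect and minimum signal wells for full effect; inactives centre near -20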
Arbovirus inh = arbovirus infection inhibition. arbovirus infection cell-based antiviral screen. inhibition, % at 10 µM. 0.37% of 200,000 active. AID 1251;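 active means inhibition from about 30%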;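 further: bluetongue infection of BSR cells; cell survival read as ATP light after 72 h; 0% = infected wells without compound and 100% = uninfected wells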
Mtb H37Rv = M. tuberculosis H37Rv growth inhibitors, H37Rv strain (AID 1626). 0.95% of 220,000 active. M. tuberculosis H37Rv growth inhibition; higher % means a stronger effect. one-dose inhibition, % at 10 µM; IC50 in µM for titrated hits;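 active means confirmed in a dose series; inconclusive means inhibition above 80% but not taken into the dose series; inactive means below 80% or under 30% at every dose of the series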;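 further: bacteria incubated seven days before Alamar blue readout; 0% = bacteria only wells and 100% = bacteria with antibiotic wells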
Mtb bLac sens = beta-lactam sensitization of Mtb H37Rv | M. tuberculosis H37Rv growth with meropenem, percent inhibition; hits of this screen are not shown here | inhibition, % at 25 µM | 0.27% of 330,000 active | AID 434955;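 active means about 74% or more and at least 40 points above the plate without the antibiotic, then above 30% in a dose series; inconclusive means first-round hits that could not be retested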;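 further: growth measured after seven days incubation then overnight dye step; 0% = bacteria only wells and 100% = bacteria with antibiotic; twin plates without the antibiotic show which effects depend on it; some results filed as inactive read as strong as hits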
RecA intein inh = inhibitors of M. tuberculosis RecA intein splicing; P9WHJ3; cell-free RecA intein splicing, fluorescence; inhibition, %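 (about 9 µM by stock and volumes)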; 0.75% of 290,000 active; in the data active means inhibition above about 30%; inconclusive means no clear call, values can overlap the other calls;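 further: 0% = vehicle wells and 100% = reference inhibitor control wells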
Target sequence (P9WHJ3 whole entry, looked up): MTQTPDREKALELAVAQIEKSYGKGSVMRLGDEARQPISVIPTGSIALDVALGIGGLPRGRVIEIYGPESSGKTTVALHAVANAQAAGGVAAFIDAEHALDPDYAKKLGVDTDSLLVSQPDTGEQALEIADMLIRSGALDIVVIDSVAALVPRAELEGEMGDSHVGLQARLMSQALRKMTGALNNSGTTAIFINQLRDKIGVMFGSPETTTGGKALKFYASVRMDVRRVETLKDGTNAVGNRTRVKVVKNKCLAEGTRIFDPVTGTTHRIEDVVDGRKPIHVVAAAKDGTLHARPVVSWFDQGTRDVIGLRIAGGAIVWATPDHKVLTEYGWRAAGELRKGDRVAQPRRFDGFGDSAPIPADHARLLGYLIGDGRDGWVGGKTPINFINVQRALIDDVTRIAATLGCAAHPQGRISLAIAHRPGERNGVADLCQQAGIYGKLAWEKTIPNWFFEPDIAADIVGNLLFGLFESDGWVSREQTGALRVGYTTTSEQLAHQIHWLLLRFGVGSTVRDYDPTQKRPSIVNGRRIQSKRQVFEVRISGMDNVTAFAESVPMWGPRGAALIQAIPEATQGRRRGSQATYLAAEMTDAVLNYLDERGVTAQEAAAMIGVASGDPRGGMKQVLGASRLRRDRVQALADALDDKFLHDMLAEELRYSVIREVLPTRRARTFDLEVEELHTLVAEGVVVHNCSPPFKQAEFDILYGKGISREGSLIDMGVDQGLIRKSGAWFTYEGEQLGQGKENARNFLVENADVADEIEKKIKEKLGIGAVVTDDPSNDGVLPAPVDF
Arbovirus inh repeat = further read-out of Arbovirus inh, marked with its call; inhibition, %; measured here: 10K subset replicate screen; many hits read low in the repeat;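 first of two repeat runs on a subset; 0% = infected and 100% = uninfected wells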
* hit, by the source's call; ? = inconclusive; . = not tested or not shown. Not all compounds are listed (hit frequency here may not be typical).

SMILES	YopH inh	Arbovirus inh	Mtb H37Rv	Mtb bLac sens	RecA intein inh	others
CCCCCCN=Cc1c(O)n(C)c(=O)n(C)c1=O	5	0	7%	-1	1.3
Cc1ccc2oc(=O)c3cnn(CC(=O)NC4CCN(Cc5ccccc5)CC4)c3c2c1	-29	-8	4%	-7	-5.0	Arbovirus inh repeat=-3
CCCC(=O)C1C(=O)CC(CC(C)SCC)CC1=O (stereo not drawn)	-40	-3	-13%	11	-2.1
CCOC(=O)c1ccc2nc(NC(C)=O)sc2c1	.	0	-5%	6	0.4
COc1ccc(NC(=O)CN(C)C(=O)Cc2c(C)nc3ccccc3c2C)cc1	.	.	.	-1	1.7
COC(=O)[C@@]1(C#N)[C@@H]2C=CC(C(C)=O)=CN2[C@@H](C(N)=O)[C@@H]1c1ccc(F)cc1	.	.	-6%	-2	.
O=C(COC(=O)C1CC(O)CN1S(=O)(=O)c1ccc(Cl)cc1)c1cccc(Cl)c1 (stereo not drawn)	-22	0	-8%	4	2.4
O=C(CCCc1ccccc1)Nc1ccccc1C(F)(F)F	.	.	.	0	-1.4
Cc1nn(Cc2ccc(Cl)cc2)c(C)c1NC(=O)c1cc(-c2ccco2)on1	-52	1	.	0	.
COc1ccc(OC)c(C(C(=O)NC2CCCCC2)N(Cc2ccco2)C(=O)c2ccccn2)c1 (stereo not drawn)	.	.	.	-6	-1.8
COc1ccccc1CNCC(=O)Nc1ccc(N2CCOCC2)cc1	-13	-12	-8%	5	-2.6
COC(=O)c1ccccc1N(C)S(=O)(=O)c1cc2c(cc1C)OCC(=O)N2	.	-12	-4%	-3	6.3
COc1ccc(N2C(=O)CSC2c2ccccc2[N+](=O)[O-])cc1 (stereo not drawn)	.	-2	5%	-7	-0.5
Cc1cccc(C(=O)c2cn[nH]c2-c2ccc(C)cc2O)c1	.	.	.	3	-5.5
CCOC(=O)N(C)c1ccc(C(O)(C(=O)OC)C(F)(F)F)cc1 (stereo not drawn)	37	1	-2%	-8	-4.0
O=C1CSC(=Nc2ccccc2)N1Cc1ccccc1	.	3	10%	-4	3.5
CCCCN(CC)CCNC(=O)c1[nH]c(C)c(C(C)=O)c1C	-21	-2	-3%	-1	-2.3
Cc1nn(C)c(C(=O)N/N=C/c2ccc(C(F)(F)F)cc2)c1[N+](=O)[O-]	-29	-1	6%	-6	-2.5
CCOc1ccc2c(c1)C(C)=CC(C)(C)N2C(=O)Nc1ccccc1	-12	0	-2%	1	-0.1
Cc1ccc(-n2ccnc(SCC(=O)NCCc3ccccc3)c2=O)cc1F	.	.	.	-20	1.5
CCOc1ccc(-n2cc(C(=O)Nc3ccc(Cl)cn3)c3cc(OC)c(OC)cc3c2=O)cc1	-10	-12	-8%	.	-2.6
CS(=O)(=NS(=O)(=O)c1ccc(Cl)cc1)c1ccccc1 (stereo not drawn)	.	.	15%	-2	0.0
Cc1nn(-c2ccccc2)c(C)c1/C=N/NC(=O)c1ccccc1O	.	.	.	8	-2.4
O=C(c1cc(-c2cccnc2)nc2ccc(Br)cc12)N1CCN(c2ncccn2)CC1	-26	22	10%	-2	-0.2
CN(C)/C=N/c1ncc(C(=O)c2ccc(Cl)cc2Cl)s1	.	-17	0%	-1	-5.0
O=C(Oc1ccc2c(=O)c(Cl)coc2c1)c1ccncc1	-37	-2	-4%	1	.	Arbovirus inh repeat=-6
CCCCOC(=O)Nc1ccccc1C(N)=O	-24	0	-4%	1	-2.7	Arbovirus inh repeat=0
Cc1cccc(NC(=O)c2cc(S(=O)(=O)N3CCCCC3)c[nH]2)c1C	.	.	.	-6	-0.3
COc1cccc2sc(NNC(=O)C3=COCCO3)nc12	.	5	0%	17	-3.9
CC(C)(C)CC(=O)Nc1ccccc1N1CCN(c2ccc(F)cc2)CC1	.	.	.	3	16
Cc1ccc(CSC2=NCCN2C(=O)C2CC2)cc1	6	-7	58%	70	3.3
COc1ccc2cc3cc(C(=O)N4CCCCCC4)oc3nc2c1	.	.	.	4	0.8
Cc1nc2cc(C(=O)O)ccc2s1	-21	5	1%	6	-1.3
CC(C)Cn1c(-c2cccnc2)nc2c1c(=O)[nH]c(=O)n2CC(C)C	.	.	.	-2	1.1
O=C1c2cccc(OCC(=O)N3CCCc4ccccc43)c2CCN1Cc1ccc(F)cc1	-5	-22	8%	5	14
N/C(=N\OC(=O)Cc1cccs1)c1ccc([N+](=O)[O-])cc1	-19	-2	-3%	36	6.0
CCC1C(=O)NCCN1C(=O)c1ccc2nc(Cc3ccc(OC)cc3)oc2c1 (stereo not drawn)	.	.	.	-4	-0.8
C(=N\n1cnnc1)/c1ccc(-c2ccccc2)cc1	-38	-14	14%	77	-0.3
Nc1nonc1C(=O)NCCNC(=O)c1ccccc1F	-22	3	0%	-4	1.1
NC(=O)CC(NC(=O)c1ccccc1)c1ccc(NC2CCN(Cc3ccccc3)CC2)c([N+](=O)[O-])c1 (stereo not drawn)	.	.	.	-8	-4.0

20 entries from above, sorted by count of non-hydrogen atoms, smallest number first:
SMILES	YopH inh	Arbovirus inh	Mtb H37Rv	Mtb bLac sens	RecA intein inh	others
Cc1nc2cc(C(=O)O)ccc2s1	-21	5	1%	6	-1.3
CCCCOC(=O)Nc1ccccc1C(N)=O	-24	0	-4%	1	-2.7	Arbovirus inh repeat=0
CCOC(=O)c1ccc2nc(NC(C)=O)sc2c1	.	0	-5%	6	0.4
CCCC(=O)C1C(=O)CC(CC(C)SCC)CC1=O (stereo not drawn)	-40	-3	-13%	11	-2.1
CN(C)/C=N/c1ncc(C(=O)c2ccc(Cl)cc2Cl)s1	.	-17	0%	-1	-5.0
O=C(Oc1ccc2c(=O)c(Cl)coc2c1)c1ccncc1	-37	-2	-4%	1	.	Arbovirus inh repeat=-6
Cc1cccc(C(=O)c2cn[nH]c2-c2ccc(C)cc2O)c1	.	.	.	3	-5.5
COc1ccc(N2C(=O)CSC2c2ccccc2[N+](=O)[O-])cc1 (stereo not drawn)	.	-2	5%	-7	-0.5
COc1ccc2cc3cc(C(=O)N4CCCCCC4)oc3nc2c1	.	.	.	4	0.8
CCOc1ccc2c(c1)C(C)=CC(C)(C)N2C(=O)Nc1ccccc1	-12	0	-2%	1	-0.1
COc1ccccc1CNCC(=O)Nc1ccc(N2CCOCC2)cc1	-13	-12	-8%	5	-2.6
COC(=O)c1ccccc1N(C)S(=O)(=O)c1cc2c(cc1C)OCC(=O)N2	.	-12	-4%	-3	6.3
Cc1ccc(-n2ccnc(SCC(=O)NCCc3ccccc3)c2=O)cc1F	.	.	.	-20	1.5
O=C(COC(=O)C1CC(O)CN1S(=O)(=O)c1ccc(Cl)cc1)c1cccc(Cl)c1 (stereo not drawn)	-22	0	-8%	4	2.4
O=C(c1cc(-c2cccnc2)nc2ccc(Br)cc12)N1CCN(c2ncccn2)CC1	-26	22	10%	-2	-0.2
Cc1ccc2oc(=O)c3cnn(CC(=O)NC4CCN(Cc5ccccc5)CC4)c3c2c1	-29	-8	4%	-7	-5.0	Arbovirus inh repeat=-3
O=C1c2cccc(OCC(=O)N3CCCc4ccccc43)c2CCN1Cc1ccc(F)cc1	-5	-22	8%	5	14
CCOc1ccc(-n2cc(C(=O)Nc3ccc(Cl)cn3)c3cc(OC)c(OC)cc3c2=O)cc1	-10	-12	-8%	.	-2.6
COc1ccc(OC)c(C(C(=O)NC2CCCCC2)N(Cc2ccco2)C(=O)c2ccccn2)c1 (stereo not drawn)	.	.	.	-6	-1.8
NC(=O)CC(NC(=O)c1ccccc1)c1ccc(NC2CCN(Cc3ccccc3)CC2)c([N+](=O)[O-])c1 (stereo not drawn)	.	.	.	-8	-4.0

Carrying on:
SMILES	YopH inh	Arbovirus inh	Mtb H37Rv	Mtb bLac sens	RecA intein inh	others
CCCNC(=O)c1ccc(S(=O)(=O)c2ccc(OC)cc2)c([N+](=O)[O-])c1	.	.	.	-8	3.9
Cc1ccc(-c2csc(N/N=C/c3ccco3)n2)c(C)c1	16	4	5%	6	-3.6
O=C(O)C1(P(=O)(c2ccccc2)c2ccccc2)CCC1	-2	3	1%	-13	.	Arbovirus inh repeat=7
Cc1ccc(Nc2nc3ccccc3n3cnnc23)c(Cl)c1	.	.	.	1	4.4
CCN(CC)CCCn1c2c(c(SCC(=O)Nc3ccc(OC(F)(F)F)cc3)nc1=O)CCC2	.	.	.	-5	1.0
CN1C(=O)/C(=C/c2ccccc2F)Sc2ccc(C(=O)NCC3CCCO3)cc21 (stereo not drawn)	.	.	.	98	-1.4
O=C(Nc1ccc(Cl)cn1)Nc1ccc(Cl)cn1	.	1	3%	-4	-1.3
Cc1cc(C)nc(NC(=O)CCN2C(=O)c3ccccc3S2(=O)=O)n1	.	.	.	-9	-3.8
Cc1cc(Nc2ccccc2)nn1C(=O)c1ccc(Cl)cc1	-13	5	.	5	-1.4
CCCn1nc(NC(=O)C(C)(C)C)c2cc3cc(OC)ccc3nc21	.	.	.	10	-97
CC(NC(=O)CN1CCCC1)c1ccccc1 (stereo not drawn)	.	.	.	2	-0.3
CSc1ccccc1NC(=O)CO/N=C(\C)c1cc2ccccc2o1	-22	38*	0%	6	12
Cc1ccc(NC(=O)COC(=O)COc2cccc3c2OC(C)(C)C3)cc1C	.	.	.	-9	-1.4
N/C(=N/O)c1cccn1Cc1ccccc1[N+](=O)[O-]	.	2	2%	2	-2.5
CCCc1cc(C(=O)OCC(=O)N(CCC)c2c(N)n(Cc3ccccc3)c(=O)[nH]c2=O)sc1C	.	.	.	-5	-1.1
COc1ccccc1C(=O)NC(=O)COC(=O)CNC(=O)c1ccccc1	.	.	.	-2	-2.4
Cc1ccc(NC(=O)CCn2cnc3ccccc3c2=O)cc1Cl	-37	-12	>100µM*	26	1.7
CC1CCN(CCCNC(=O)C2CCC(CNS(=O)(=O)c3ccccc3)CC2)CC1 (stereo not drawn)	.	.	.	3	-6.5
Cc1ccccc1SC1CCN(C(=O)C2CCC(=O)N(C3CC3)C2)CC1 (stereo not drawn)	.	.	.	2	-0.3
C/C(=N\N=C(c1ccccc1)c1ccccc1)c1ccco1	.	-4	10%	-14	9.2
COc1ccc(OC)c2[nH]c(=O)c(CCNS(=O)(=O)c3ccc(F)cc3)cc12	.	.	.	0	-3.3
CCOc1ccccc1N1CCN(CC(O)COc2ccc3c(C)cc(=O)oc3c2)CC1 (stereo not drawn)	-28	-5	-8%	7	1.9
CC(NC(=O)CN(c1ccccc1F)S(C)(=O)=O)c1ccccc1 (stereo not drawn)	.	.	.	-7	-2.2
COc1ccc(CN(C(=O)c2ccc(C)cc2)C2CCS(=O)(=O)C2)cc1 (stereo not drawn)	.	.	.	9	0.1
O=C(CO/N=C1\CCCc2nonc21)Nc1ccc(Br)cc1	0	2	3%	-7	3.3
N#Cc1c(NC(=S)NC(=O)C2CCCC2)sc2c1CCCCC2	-33	11	?	100	-0.8
CCC(CC)NC(=O)Cc1ccccc1OC	-14	3	1%	-7	0.8
CN(c1cccc(NC(=O)CN2C(=O)c3ccccc3S2(=O)=O)c1)S(C)(=O)=O	-26	3	-4%	-6	-5.3
Cc1nn(-c2ccccc2)c(Cl)c1C(=O)NCC(C)C	-73	-1	-4%	-3	-0.1
CCOC(=O)CSc1nnc(CNC(=O)c2ccc(OC)cc2OC)n1-c1ccc(OC)cc1	-47	0	-17%	-3	.
O=C(O)c1ccccc1SSc1ccccc1C(=O)O	.	.	.	-2	-7.3
O=C(Nc1ncccc1Cl)c1cccc(F)c1	-29	5	-10%	-5	-0.3
Nc1nnc(SCc2ccccc2F)n1-c1ccccc1	-16	1	-4%	-2	-2.7
CC(CC(=O)c1cccs1)CC(=O)c1cccs1	-45	-6	-5%	8	-3.0
O=C1COc2cc(S(=O)(=O)CCC(=O)N3CCCCC3)c(Cl)cc2N1	.	.	.	7	1.2
COc1ccc(N2CCN(C(=O)CCSCc3ccccc3F)CC2)cc1	.	-6	8%	4	-2.4

Source: PubChem BioAssay (several laboratories)
